fixLJ activator: activators of Burkholderia fixLJ two-component system, primary screen, B. multivorans, GFP reporter; z-score (no concentration beside the values); actives 0.3% (n = 29,000); B. multivorans fixK-promoter GFP reporter, 18 h; hits give high values;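 active means replicate mean overnight rise in green fluorescent reporter signal, 3 or more SD over negative controls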;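 further: score is relative to vehicle wells of the plate; 300 nL library stock went into each well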
Numbers without * were called inactive. Only part of the results is shown; count on the stated rates, not on these rows.

Structure | fixLJ activator
COc1cc(OC)c(NC(=O)c2cn(C)c(=O)c3cc(OC)c(OC)cc23)cc1Cl | 0.04
CCOc1ccc(NC(=O)CC2C(=O)OCCN2CC)cc1 (stereo not drawn) | 1.3
CCOc1ccc(-c2nnc(SCC(=O)c3ccc(F)cc3)n2-c2ccccc2)cc1 | 0.32
O=C(c1ccccc1Br)N(Cc1ccco1)C1CCS(=O)(=O)C1 (stereo not drawn) | 0.84
CCOC(=O)c1ccc(NC(=O)CCn2cnnn2)cc1 | -1.4
Cc1sc(-n2cccc2)c(C(C)NC(=O)Nc2cccc(C(F)(F)F)c2)c1C (stereo not drawn) | -1.5
COc1ccc(-c2nc(CSCC(=O)NCCc3ccc(OC)c(OC)c3)c(C)o2)cc1 | -1.1
Cc1csc2nc(COc3ccc(NC(=O)COc4ccccc4)cc3)cc(=O)n12 | -1.7
Cc1ccc(C(=O)c2cn(Cc3ccccc3F)c3cc4c(cc3c2=O)OCO4)cc1 | -0.42
O=C(Nc1c(-c2ccc(F)cc2)nc2ccccn12)c1ccccc1F | 0.5
COc1cc2c(cc1OC)C(c1ccc(Cl)cc1)N(c1cccc(C#N)c1)C(=O)C2 (stereo not drawn) | -2.4
CCn1cc(C(=O)NCCOC)c(=O)c2cc(S(=O)(=O)N3CCOCC3)ccc21 | -0.8
CCOC(=O)c1cnc2c(ccc3ccccc32)c1Nc1ccc(C(C)=O)cc1 | -0.86
CN1CC2(CCN(Cc3ccc(CCC(C)(C)O)cc3)CC2)OC1=O | 0.78
Cc1ccc(NC(=O)CSCn2nnc3c(=O)[nH]c(Cc4ccc(F)cc4)nc32)c(C)c1 | -0.32
CCOC(=O)c1sc2ncn(CC(=O)Nc3ccc(C)cc3Br)c(=O)c2c1C | -1.3

4 of the compounds above, as labelled records:
O=C(Nc1c(-c2ccc(F)cc2)nc2ccccn12)c1ccccc1F
  fixLJ activator = 0.5

COc1cc2c(cc1OC)C(c1ccc(Cl)cc1)N(c1cccc(C#N)c1)C(=O)C2 (stereo not drawn)
  fixLJ activator = -2.4

CCn1cc(C(=O)NCCOC)c(=O)c2cc(S(=O)(=O)N3CCOCC3)ccc21
  fixLJ activator = -0.8

CCOC(=O)c1cnc2c(ccc3ccccc32)c1Nc1ccc(C(C)=O)cc1
  fixLJ activator = -0.86

(further entries)
Structure | fixLJ activator
COc1cc2[nH]c(=O)c(CN3CC(O)C3)cc2c(OC)c1OC | 0.56
COc1cccc(-n2c(=O)c3cc(OC)c(OC)cc3n(CC(=O)Nc3ccc(F)cc3)c2=O)c1 | -2.8
O=C(CCCOCc1ccccc1)N1CC2NCCOC2C1 (stereo not drawn) | -0.67
COc1ccccc1OCc1cc(C(=O)N2CC3CC4CC(C3)CC2C4)n[nH]1 | -1.1
CN(Cc1ccccc1)C(=O)c1cc2c(=O)n(C)c3ccccc3c2s1 | 0.14
Cc1nn(CC(=O)N2CCC(C)CC2)c(=O)c2cc3occc3n12 | -2.3
Cc1cc2cccc(NC(=O)N3CCCN(C(=O)C(F)(F)F)CC3)c2o1 | -0.46
NC(N)=NS(=O)(=O)c1ccc(N)cc1 | -1.5

A second format for 4 compounds above.
COc1cc2[nH]c(=O)c(CN3CC(O)C3)cc2c(OC)c1OC
  fixLJ activator = 0.56

COc1cccc(-n2c(=O)c3cc(OC)c(OC)cc3n(CC(=O)Nc3ccc(F)cc3)c2=O)c1
  fixLJ activator = -2.8

O=C(CCCOCc1ccccc1)N1CC2NCCOC2C1 (stereo not drawn)
  fixLJ activator = -0.67

COc1ccccc1OCc1cc(C(=O)N2CC3CC4CC(C3)CC2C4)n[nH]1
  fixLJ activator = -1.1

Carrying on.
Structure | fixLJ activator
CCCN1C(=O)C2(c3ccccc31)c1c(oc3ccc(F)cc3c1=O)C(=O)N2CCCOC(C)C (stereo not drawn) | -0.6
CCC(=O)N1CCc2cc(Br)cc(S(=O)(=O)CCC(=O)N3CCN(c4cc(C)ccc4C)CC3)c21 | -0.21
Cc1ncsc1CN(Cc1ccccc1)Cc1ccc(C(=O)O)o1 | 0.45
CCc1ccc(C(=O)N2CCC3(CC2)c2nc[nH]c2CCN3CC(C)C)s1 | -0.28
Cn1c(CN2CCCCC2)nnc1C1CCN(C(=O)CCO)CC1 | 0.3
NS(=O)(=O)c1ccc(NC(=O)COc2ccc(S(=O)(=O)NC3CCCCC3)cc2)cc1 | -2.5
Cc1ccc(Cn2c(CCCNC(=O)c3ccco3)nc3ccccc32)cc1 | -2.4
COc1ccc2c(C)c(C(=O)N3CCCC4(CCOCC4)C3)oc2c1OC | -0.39
Cc1ccsc1CN(Cc1ccco1)C(=O)c1ccc(Cl)cc1 | 1.4
Cc1ccc2oc3c(c(=O)c2c1)C(c1cccc(O)c1)N(Cc1ccccc1Cl)C3=O (stereo not drawn) | -1.8
O=C(Nc1ccccc1C(=O)O)c1cccc(S(=O)(=O)N2CCCC2)c1 | -1.5
Cc1ccc(C)c(CN2C(=O)c3ccccc3S(=O)(=O)c3ccc(C(=O)N4CCCCC4)cc32)c1 | -1.1
Cn1c(=O)cc(OCC(=O)N2CCN(c3ccc(F)cc3)CC2)c2ccccc21 | -1.5
Cc1cc(C)n(-c2nc3cc(Cl)ccc3nc2N2CCN(c3cccc(C)c3C)CC2)n1 | -0.71
CC(C)(C)c1ccccc1NC(=O)CSc1nc(-c2cccs2)cc(C(F)(F)F)n1 | -0.63
CCc1ccc2occ(CC(=O)NCc3ccccc3)c2c1 | 1.8
COc1cccc(-n2c(-c3ccc(C)cc3)cc3c2CC(C)(C)CC3=O)c1 | -0.85
CN(C)C(=O)c1ccc(CNCc2cc(=O)c3cccc(Cl)c3[nH]2)o1 | 0.12
COc1ccc(/C=C\c2onc(C)c2S(=O)(=O)N2CCC(C(=O)Nc3ccc(F)cc3F)CC2)cc1 | -1
Cc1cccc(C(=O)Nc2c(C(=O)NCc3ccc(Cl)cc3)sc3nc(C)cc(C)c23)c1 | -6.5
Cc1ccc(-c2ccc(=O)[nH]n2)cc1NC(=O)Cc1cccnc1 | 0.2
COc1ccc(C(=O)Nc2ccc3oc(-c4cc(Cl)ccc4Cl)nc3c2)cc1Br | -1.2
COc1ccc(-c2[nH]ncc2CNC(=O)c2ccc(S(N)(=O)=O)cc2)cc1 | -0.67
CCc1ccc2oc(C(=O)Nc3ccccc3OC)cc(=O)c2c1 | -1.6
CN(CC(=O)N1CC(O)C(Cc2ccnc3ccccc23)C1)C(N)=O (stereo not drawn) | -0.44
CCOC(=O)C1=C(CN2CCN(c3ccccc3)CC2)NC(=O)NC1c1ccc(C)cc1 (stereo not drawn) | -4.9
CCCCn1c(C(C)NC(=O)c2ccccc2)nc2ccccc21 (stereo not drawn) | -0.3
COc1cc2c(=O)c(S(=O)(=O)c3ccc(F)cc3)cn(Cc3ccc(Cl)cc3)c2cc1OC | -2.5
Cc1nn(C)c2nc(-c3ccncc3)nc(N(C)CCN3CCCCCC3)c12 | -0.16
COCCN(Cc1nccs1)C(=O)NCc1ccccc1C(F)(F)F | -1.6
Cc1ccn2c(=O)c(C(=O)NC(C)c3ccccc3)c(O)nc2c1 (stereo not drawn) | -1
COc1ccc(NC(=O)CSc2nc(-c3ccc(OC)cc3)[nH]c2-c2ccc(OC)cc2)cc1 | -0.71

Next compounds follow:
| Structure | fixLJ activator |
| --- | --- |
| COc1ccc(CCNC(=O)Cn2c(C)c3cnn(-c4ccccc4)c(=O)c3c2C)cc1OC | 0.47 |
| CC1=C(C(=O)Nc2cccnc2)C(c2ccc(F)cc2)n2nc(-c3cccc(C)c3)nc2N1 (stereo not drawn) | -0.43 |
| O=C1CC(c2cccc(Cn3cccn3)c2)c2c(nc3ccccn23)CN1 (stereo not drawn) | -0.32 |
| Cc1ccc(Nc2ncc(C(=O)N3CCN(c4cccc(Cl)c4)CC3)c3ccccc23)cc1Cl | 1.7 |
| COc1ccccc1/C=C/c1nc(C#N)c(NCC(C)C)o1 | -0.3 |
| COc1cccc(OC)c1C(=O)Nc1ccc(-c2nc3ncccc3o2)cc1 | 0.19 |
| COCCOc1ccc(-c2c(N3CCCC3)cn[nH]c2=O)cc1 | -0.04 |
| CCOc1ccc(CCNC(=O)CSc2nnnn2-c2ccccc2)cc1OCC | -1.7 |
| CCOC(=O)c1c(NC(=O)c2ccc(F)cc2)sc2c1CCC(CC)C2 (stereo not drawn) | -0.51 |
| CCOC(=O)Cc1ccc(NC(=O)n2ncc3c(C)cccc32)cc1 | 0.81 |
| COc1ccc(NC(=O)c2cnc(Nc3ccc(C)c(Cl)c3)c3ccccc23)cc1OC | 0.07 |
| Cc1ccc(C)c(NC(=O)Cn2c(=O)n(Cc3ccc4c(c3)OCO4)c(=O)c3ccc(C(=O)NC4CCCCC4)cc32)c1 | -1 |
| Cc1nnc(CCNC(=O)Nc2ccc3c(c2)nnn3C)s1 | -1.7 |
| COc1ccc(OC)c(NC(=O)c2nc(S(=O)(=O)Cc3ccc(F)cc3)ncc2Cl)c1 | -0.5 |
| CCc1nc(C)c(CC(=O)N2CCN(C(=O)c3ccc[nH]3)CC2)c(=O)[nH]1 | 0.24 |
| CC(C)(C)c1ccc(-c2nnc(-c3ccccc3NC(=O)c3ccc(F)cc3F)o2)cc1 | -0.72 |
| OC[C@@H](O)C(O[C@@H]1O[C@H](CO)[C@H](O)[C@H](O)[C@H]1O)[C@H](O)[C@@H](O)CO (stereo partly drawn) | 0.34 |
| COc1ccc(CN(CCO)C(=O)Nc2cc(N(C)C)ccc2C)cc1 | 0.51 |
| CCCCN(CC)CCNC(=O)c1cc2c(=O)n(CC)c3ccccc3c2s1 | -0.77 |
| C[N+](C)(C)CCOC(=O)CCC(=O)OCC[N+](C)(C)C | 1.1 |
| CN(CCCC1CCCC1)c1cc(C2CCOC2)nc(N2CC(O)C2)n1 (stereo not drawn) | -1.7 |
| CCOC(=O)c1ccc(NC(=O)c2ncn(-c3ccccc3)n2)cc1 | -0.95 |
| CC1(C)CC(=O)c2cc(C#N)c(=O)n(-c3ccc(Cl)cc3)c2C1 | -0.06 |
| CCCc1ccc(S(=O)(=O)N2CCC(O)C(C(=O)O)C2)cc1 (stereo not drawn) | 0.27 |
| CCN(CC)c1nc(-c2ccc(C(C)(C)C)cc2)nc2ccccc12 | 0.16 |
| CCC(C)NC(=O)c1nn(-c2ccc(C)cc2)nc1CO (stereo not drawn) | -1.6 |
| Nc1ccc(C(=O)N2CCCC3(CCC(=O)N(CCc4ccccc4)C3)C2)cn1 (stereo not drawn) | -1.6 |
| COCCN(Cc1ccc(C)cc1)C(=O)c1ccc(CNC(=O)C(C)C)cc1 | 1.1 |
| COc1ccc(OC)c(C2CC(=O)c3c([nH]c(C(=O)OCc4ccc(C)cc4)c3C)C2)c1 (stereo not drawn) | -0.48 |
| CC(C)CN1CCn2nc(CNC(=O)c3ccc(C(F)(F)F)cc3)cc2C1 | -1.6 |
| COc1cccc(OCC(O)CNC(=O)CCN2CCCCO2)c1 (stereo not drawn) | 0.32 |
| Cc1ccc(NC2=C(c3ccc(C(F)(F)F)cc3)C(=O)c3ccccc32)cc1F | 2.3 |
| COc1cc(OC)c(Nc2nc3ccc(C(=O)c4ccccc4)cc3n3c(C)nnc23)cc1Cl | -0.03 |
| Cc1ncsc1CCC(=O)N(C)Cc1cc(C2CC2)n[nH]1 | -1.5 |
| CNC(=O)c1cc2c(n(-c3ccc(C)cc3)c1=O)CC(C)(C)CC2=O | -0.62 |
| COC(=O)C(CCSC)NC(=O)c1cc2c(n(-c3ccc(C)cc3)c1=O)CC(C)(C)CC2=O (stereo not drawn) | -2.3 |
| Cc1ccc(Cn2c(CN3CCC(C(=O)O)CC3)cc3ccccc32)cc1 | -0.94 |
| CCOc1ccc(NC(=O)CCc2nc3cccnc3n2Cc2ccc(OC)cc2)cc1 | 0.34 |
| CCn1ncnc1CN1CCC(CNC(=O)c2ccccn2)CC1 | 0.42 |
| Cc1cccc2c1-c1sc(C(=O)NCc3ccc(Cl)cc3)cc1CO2 | -0.69 |
| COc1ccc(C(NC(=O)c2coc(CN3CCOCC3)c2)c2ccncc2)cc1 (stereo not drawn) | 0.58 |
| CC1CCCN(C(=O)c2cc3c(Cl)nc4ccccc4c3s2)C1 (stereo not drawn) | -1.3 |
| Cn1c(C(=O)N2CCC(C(=O)N3CCN(c4ccccc4)CC3)CC2)cc2sccc21 | -2.3 |
| CCOc1ccc(OCC)c(NC(=O)C(NS(=O)(=O)c2cccs2)c2ccccc2)c1 (stereo not drawn) | 0.3 |
| COc1cccc2c1OCC(CNC(=O)c1cc(C(C)C)nc(N)n1)C2 (stereo not drawn) | 0.13 |
| COc1ccc(N2CCN(C(=O)C3CCN(S(=O)(=O)c4cccs4)CC3)CC2)cc1 | -0.93 |
| CCCC(C)c1nnc(NC(=O)c2cccc(-n3cnnc3)n2)s1 (stereo not drawn) | -0.26 |
| O=S(=O)(c1ccc(F)cc1)N(Cc1nc(-c2ccccc2)no1)C1CCCCC1 | -0.67 |
| O=C(NCCc1ccc(Cl)cc1)c1ccc2c(c1)N(Cc1c(F)cccc1Cl)C(=O)CS2 | -0.33 |
| Cc1cccc(C)c1Nc1nc2ccccc2nc1NS(=O)(=O)c1ccccc1 | -1.8 |
| CCCCN1CC2(CCCN(C(=O)c3cccc(O)c3)C2)CCC1=O (stereo not drawn) | -1.1 |
| COc1ccc(Cn2c(CCC(=O)Nc3cc(C)cc(C)c3)nc3cccnc32)cc1 | 1.3 |
| O=C(O)C1CCCN(S(=O)(=O)NCCOc2cccc3cccnc23)C1 (stereo not drawn) | 0.87 |
| COc1cc(NC(=O)NCc2nnc(N)s2)cc(OC)c1OC | -0.34 |
| COc1cccc(NC(=O)Cn2c(=O)n(-c3ccccc3)c(=O)c3c4c(sc32)CCCC4)c1 | -1.6 |
| Cc1ccccc1Nc1c(-c2cccc(O)c2)nc2ccc(Br)cn12 | -0.42 |
| Cc1ccc(N2CCN(C(=O)C3CCC(CNS(=O)(=O)c4ccc(Br)s4)CC3)CC2C)cc1 (stereo not drawn) | -1.6 |
| CCOc1ccc(Oc2nc(NC)nc(N3CCOCC3)n2)nn1 | -1.8 |
| COc1ccc(-c2oc3ncn4nc(-c5ccccc5O)nc4c3c2-c2ccc(OC)cc2)cc1 | -1.3 |
| CCCOc1cccc(C(=O)Nc2ccc(-c3nc4ccccc4o3)cc2)c1 | 0.06 |
